NPYLR7 ag: agonists of mosquito NPYLR7 receptor, primary screen, cell-based, Aedes aegypti, calcium fluorescence, mosquito biting behavior; Aedes aegypti neuropeptide Y-like receptor 7 (NPYLR7); HEK293T NPYLR7/Galpha15, GCaMP6s calcium fluorescence; activation, % at 10 µM; hit rate 0.15% among 270,000; AID 1259423, 2018; in the data active = activation above about 40%;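 also: 0% = vehicle and 100% = reference agonist at the receptor; some compounds past the cut are filed as inactive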
NPYLR7 ag max-min: second read-out of NPYLR7 ag, no call of its own (marks repeat the call); activation, %; measured here: Max-Min RFU normalised activation; some inactives read as strong as hits;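 span of the calcium signal over five minutes; 0% = vehicle and 100% = native peptide agonist; compound fluorescence can raise it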
Starred values were filed as active, the others as inactive; & = joins results of further samples.

The opening three entries, to show the layout:
SMILES | NPYLR7 ag | NPYLR7 ag max-min
c1ccc(-c2nnc(-c3ccco3)nc2OCCN2CCOCC2)cc1 | 6 | 8
C=CCCC(=O)N1CCC(c2cn(Cc3cccc(F)c3)c3ccccc23)CC1 | 4 | 1
CC(C)Cn1c(CN2CCN(Cc3ccccc3)CC2)nc2c1c(=O)n(C)c(=O)n2C | 1 | 0

Main list, from the start:
SMILES | NPYLR7 ag | NPYLR7 ag max-min
c1ccc(-c2nnc(-c3ccco3)nc2OCCN2CCOCC2)cc1 | 6 | 8
C=CCCC(=O)N1CCC(c2cn(Cc3cccc(F)c3)c3ccccc23)CC1 | 4 | 1
CC(C)Cn1c(CN2CCN(Cc3ccccc3)CC2)nc2c1c(=O)n(C)c(=O)n2C | 1 | 0
CCOCc1cc(CNC2CCCc3c2cnn3-c2cccc(C)c2C)ccc1OC (stereo not given) | 5 | 4
CC1CN(CC(=O)Nc2c(F)cccc2F)CC(C)O1 (stereo not given) | -7 | 0
O=S(=O)(c1ccccc1F)N1CCN(C(c2ccccc2)c2ccccc2)CC1 | -3 | -8
O=C(c1nn(Cc2ccccc2)c(=O)c2ccccc12)N1CCC(C(=O)N2CCOCC2)CC1 | 6 | 10
Cc1nc(Cc2ccc(N)cc2)n[nH]1 | 0 | 2
C=CCN(CC(=O)N(CCc1ccccc1)Cc1ccc(C)o1)C(=O)NCC | 3 | 0
COc1ccc(-c2ccnc(SCc3csc(Cc4ccc(F)cc4Cl)n3)n2)cc1 | 4 | -1
COC(=O)[C@@H]1C[C@@H](OCc2ccccc2)CN1C(=O)c1sc(C2COc3ccccc3O2)nc1C (stereo not given in full) | -1 | 7
Cc1ccc(-c2cc(C(=O)NCCc3ccc4c(c3)OCO4)n[nH]2)s1 | 3 | 2
Cc1csc(-c2ccc(NC(=O)c3ccn(C)c(=O)c3)cc2)n1 | 9 | 13
C=CCNC(=O)N1CCN(C(C(=O)N2CCCC2)C2CCCC2)CC1 (stereo not given) | -9 | -3
Cc1ccc(OC2(C(=O)NCCCC3CCOC3)CCNCC2)cc1 (stereo not given) | 1 | -2
Cc1ccccc1CN(C)Cn1nc(CN2CCCCCC2=O)oc1=S | 6 | 2
CCOC(=O)CSc1nnc(NC(=O)c2ccc(Cl)cc2Cl)s1 | 26 | 25
COc1ccccc1OCC1CN(C(=O)c2ccc(C(F)(F)F)nc2)CCO1 (stereo not given) | 4 | 0
COc1ccc(-c2nc3ccccc3c(=O)n2Cc2ccc(F)cc2)c2ccccc12 | 2 | 0
Cc1nc2n(n1)C(=O)C(C(c1cccc(F)c1)N1CCN(CCO)CC1)S2 (stereo not given) | 3 | -1
CCN(CC)c1onc(-c2ccccc2)c1CN(CCN(C)C)C(=O)COC | 9 | 12
COc1cc(C=CC(=O)NCCc2ccc3c(c2)OCCO3)cc(OC)c1OC | -5 | -6
Cc1cc(-c2csc(N)n2)c(C)n1C1CC1 | 1 | 0
CCC1(O)CCCN(C(=O)c2ccc(OCC(=O)N3CCCCC3)cc2)C1 (stereo not given) | 12 | 8
CNC(=O)[C@@]1(OCc2ccccc2F)CC(OCc2ccc(C#N)cc2)[C@@H]2OC(C)(C)O[C@@H]2C1 (stereo not given in full) | 6 | 9
C/C=C/C(=O)N1CCc2ccccc2C1c1ccccc1Cl (stereo not given) | -7 | 1
CCC(C)N(Cc1cccc(OS(=O)(=O)C(C)C)c1)C(=O)c1cccs1 (stereo not given) | -6 | 0
COCCN(CC(=O)N1CC(=O)N(c2cccc(Cl)c2)C1)C(=O)CCC1CCCC1 | -4 | 1
CCn1c(O)c(N=NCc2ccccc2)c2ccccc21 | 4 | 9
CCc1cc(N2CCN(c3ccccc3F)CC2)nc(SCc2cccc(C(=O)O)c2)n1 | 8 | 18
CC(O)(c1cccnc1)c1nc(-c2cccc(F)c2)cs1 (stereo not given) | 7 | 3
CCc1nc2ccc(C(=O)NCc3ccc4c(c3)OCO4)cn2c1N(C)CCN1CCOCC1 | 18 | 16
COC(=O)C1(NS(=O)(=O)N(C)C)CCCCC1 | 9 | 5
COc1cccc(CO[C@]2(C(=O)NCC(C)C)CC(OCc3ccc(C(F)(F)F)cc3)[C@H](O)[C@H](O)C2)c1 (stereo not given in full) | 5 | 12
CN(Cc1cn[nH]c1-c1ccc(F)cc1)C(=O)c1ccc2cc[nH]c2c1 | 19 | 6
O=C(CCl)Nc1c(Br)cc([N+](=O)[O-])cc1Br | 0 | 7
COc1cccc(NC(=O)N[C@H]2CCN(C(=O)C=C(C)C)[C@@H]2C(=O)N[C@H](Cc2ccccc2)C(N)=O)c1 | -11 | -16
Cc1nc(C(F)(F)F)ccc1C(=O)Nc1ccc(-c2cccc(-c3ccc4c(c3)OCCO4)n2)cc1 | 11 | 11
O=C(NCCN1CCCCC1)c1cc2n(n1)CCN(Cc1c(F)cccc1Cl)C2=O | 1 | 8
COCCOC(=NCCc1ccc(OC)c(OC)c1)NC(=O)c1cccs1 | 18 | 30
CC(C)(C)OC(=O)Cn1cc(CO)nn1 | 5 | -8
COc1ccccc1N(C)S(=O)(=O)c1cc(C(=O)O)cc2c1CCC2 | 14 | 13
Cc1nc(C)c(Cc2cccc(C(F)(F)F)c2)c(N2CCN(C(=O)Nc3ccccc3F)CC2)n1 | 17 | 20
COc1ccc(CCNC(=O)c2ccccc2N2CCC(NC(=O)c3ccco3)CC2)cc1OC | -5 | -4
COc1cc(C=C2C(=O)c3ccccc3C2=O)ccc1O | -1 | 2
CCOC(=O)c1ccc(-n2c(C)cc3c(cnc4ncnn43)c2=O)cc1 | 0 | 3
CC(NC(=O)C(C)(C)C)C(=O)N(C)C1CCN(C)CC1C (stereo not given) | 0 | 9
COc1ccc(N=c2oc3ccccc3cc2-c2nc3ccccc3[nH]2)cc1 | -1 | -4
CCN(CCO)c1nc(Nc2ccc(C)c(C)c2)c2cnn(-c3ccccc3)c2n1 | 0 | -3
Cc1nccn1-c1cc(N2CCN(C(=O)c3ccccc3)CC2)ncn1 | -18 | -18
CSc1ccc(COc2coc(CN3CCN(C(=O)c4cc(C)nn4C(C)(C)C)CC3)cc2=O)cc1 | 14 | 5
Cc1ccc(-n2c(NN)nc3c(c2=O)C2(CCCCC2)Cc2ccccc2-3)cc1 | 2 | 2
O=C1CON=C(Cc2ccccc2)N1Cc1ccccc1 | -2 | -1
CC(CO)(CO)NC(=O)CCSc1ccc2c(c1)OCCO2 | 2 | 1
CCCCNc1nc(Oc2ccc(C(=O)OC)cc2)nc(N(C)C)n1 | 0 | -1
CCOC(=O)c1cncc(C#CCO)c1 | -1 | -3
O=C(Nc1nc(C23CC4CC(CC(C4)C2)C3)cs1)c1ccc(=O)[nH]n1 | -4 | -6
Cc1ccc(C(C)C)c(OCC(=O)Nc2nccs2)c1 | -4 | -9
CCN(CC)c1ccc2cc(C(=O)Nc3cc(Cl)ccc3OC)c(=O)oc2c1 | -8 | -12
COc1ccccc1CCNC(=O)CN1CN(c2ccccc2)C2(CCN(C(=O)Nc3ccc(C(F)(F)F)cc3)CC2)C1=O | 17 | 22

An excerpt of these results, with values under each structure.
Second line of a record – NPYLR7 ag, NPYLR7 ag max-min
Cc1ccccc1CN(C)Cn1nc(CN2CCCCCC2=O)oc1=S
  6, 2
CCOC(=O)CSc1nnc(NC(=O)c2ccc(Cl)cc2Cl)s1
  26, 25
COc1ccccc1OCC1CN(C(=O)c2ccc(C(F)(F)F)nc2)CCO1 (stereo not given)
  4, 0
COc1ccc(-c2nc3ccccc3c(=O)n2Cc2ccc(F)cc2)c2ccccc12
  2, 0
Cc1nc2n(n1)C(=O)C(C(c1cccc(F)c1)N1CCN(CCO)CC1)S2 (stereo not given)
  3, -1
CCN(CC)c1onc(-c2ccccc2)c1CN(CCN(C)C)C(=O)COC
  9, 12

New compounds follow
SMILES | NPYLR7 ag | NPYLR7 ag max-min
CCCCC(=O)Nc1c(-c2ccc(Cl)cc2)nc2ccccn12 | -3 | 6
CCC(NC(=O)c1cc(CN2CCOCC2)on1)c1ccnn1C (stereo not given) | 4 | 23
COc1ccccc1-n1cc(C(=O)N(C)C2CCCN(Cc3ccccc3F)C2)cn1 (stereo not given) | 2 | -1
COc1ccccc1NC(=O)CN1C(=O)CSc2ccccc21 | -2 | -3
COC(=O)Cn1c(=O)cc(C)n(-c2ccc3c(c2)OCO3)c1=O | 1 | 1
CC(C)C(=O)NNS(=O)(=O)c1ccc(F)cc1F | 6 | 3
O=C(NCc1ccc(F)cc1)c1nccnc1C(=O)N1CCCCCC1 | 0 | -1
CC1CCCN(S(=O)(=O)c2ccc3c(c2)nc(SCc2cccc(C#N)c2)n3C2CCCC2)C1 (stereo not given) | -5 | -8
O=C(Nc1ccccc1N1CCCC1)c1cnc2n1CCCC2 | -22 | -24
Cc1cc(NC(=O)COC(=O)[C@@H](NC(=O)c2ccco2)C(C)C)no1 | 3 | 0
CCNC(=O)C1(C)CCCN1C(=O)c1cc(OC)c(OC)c(OC)c1 (stereo not given) | 2 | -1
COc1cccc(CN(Cc2ccc3c(c2)OCO3)Cc2nc(C(=O)NCc3cccnc3)co2)c1OC | 10 | 2
CCCc1nc(C(C)(C)N)no1 | 7 | 6
COc1cc(-c2nc3ccccn3c2N=Cc2cn[nH]c2-c2ccccc2)ccc1O | -15 | -21
Cc1cccc(N2CC(C)Cn3c2nc2c3c(=O)n(CC(=O)OCc3ccccc3)c(=O)n2C)c1 (stereo not given) | 3 | 9
O=C(O)CCc1ccsc1 | 0 | -2
Cc1cccc(OCCN2CCC3(CCCO3)CCC2=O)c1C (stereo not given) | -5 | -6
COC(C(=O)NCc1c(C)ncc2c1CCN(C(=O)/C=C/c1cccc(F)c1)C2)c1ccccc1 (stereo not given) | 0 | -6
CCS(=O)(=O)Oc1ccc(CN(C(=O)Nc2ccc(C(F)(F)F)cc2)C(C)C)cc1 | -9 | -9
O=c1[nH]c(=O)n(Cc2ccccc2)c2nccc(-c3ccc4c(c3)OCO4)c12 | 0 | 0
CCc1ccc(NC(=O)CSc2ccc3nnc(-c4ccc(OC)c(OC)c4)n3n2)cc1 | 11 | 10
O=C(NCCN1CCS(=O)(=O)CC1)c1ccccc1Oc1ccccc1 | -12 | -12
CCn1c(SCc2nnc(-c3cc4c(s3)CCCC4)o2)nnc1-c1ccco1 | -2 | 0
Cc1noc(C)c1Cn1c(C)c(C(=O)NCc2ccco2)sc1=O | 10 | 5

Five entries out of the list, ordered by length of the SMILES, descending:
SMILES | NPYLR7 ag | NPYLR7 ag max-min
CCS(=O)(=O)Oc1ccc(CN(C(=O)Nc2ccc(C(F)(F)F)cc2)C(C)C)cc1 | -9 | -9
COCCN(CC(=O)N1CC(=O)N(c2cccc(Cl)c2)C1)C(=O)CCC1CCCC1 | -4 | 1
COc1cc(-c2nc3ccccn3c2N=Cc2cn[nH]c2-c2ccccc2)ccc1O | -15 | -21
Cc1nccn1-c1cc(N2CCN(C(=O)c3ccccc3)CC2)ncn1 | -18 | -18
CC(CO)(CO)NC(=O)CCSc1ccc2c(c1)OCCO2 | 2 | 1

Going on with the list.
SMILES | NPYLR7 ag | NPYLR7 ag max-min
CC1(C)N=C(c2ccc(Cl)cc2Cl)C(=S)N1 | -2 | -4
CNC(=O)C(CC(C)C)NS(=O)(=O)c1c(C)cc(C(C)(C)C)cc1C (stereo not given) | 6 | 4
COCCN1CC(C(=O)Nc2ccccc2C(=O)N(C)c2ccccc2)CC1=O (stereo not given) | -1 | -4
COCCN1CC2=C(C1=O)C(c1cccc(OC)c1)NC(=O)N2C (stereo not given) | -2 | 7
Cc1ccc(C(=O)O)c(=O)n1C | -6 | -1
CCOCCCNc1nc2c(c(=O)[nH]c(=O)n2C)n1Cc1cccc(C)c1 | 5 | 1
Cc1cccc(NC(=O)Nc2ccc(Nc3ccc(-n4cccn4)nn3)cc2)c1C | -2 | -4
CC(C)(C)NC(=O)c1cc(-c2ccccc2F)n2nc(C(C)(C)C)cc2n1 | -10&16 | -3&13
CC(=O)Nc1ccc(NC(=S)N2CC3CC4CC(C3)CC2C4)cc1 | 8 | 7
Cn1c(SCC(=O)Nc2cc(C(C)(C)C)no2)nnc1-c1ccco1 | 0 | 14
COC(=O)CCc1c(C)nn(-c2ccc(C(=O)Nc3cc(OC)ccc3OC)cc2)c1C | -11 | -14
CCN(CC)CCNC(=O)c1cc(NC(=O)Nc2cccc(Cl)c2Cl)ccc1N1CCCCC1 | 29 | 27
O=C(CSc1nc(=O)n(CC2CCCO2)c2c1CCCC2)Nc1nc2ccccc2s1 (stereo not given) | -2 | -6
CCc1ccc(-c2cc3c(SCC(=O)Nc4ccccc4)nccn3n2)cc1 | -3 | -9
CCOCCC(=O)N1CCN(Cc2cccc(-c3noc(-c4cccc(Cl)c4)n3)c2)CC1 | 2 | -1
CC(C)(C)c1nnc(CN)s1 | 15 | 0
CCCn1c(=O)c2c(C(F)(F)F)cc(-c3ccco3)nc2n(CCC)c1=O | 0 | -1
CN(C)C(=O)c1ccc(-c2ccccc2-c2ccccc2)nc1 | -6 | -12
Cc1sc(NC(=O)COc2ccccc2)c(C#N)c1C | 0 | 1
COc1cccc(Oc2ccc3c(-c4ccccn4)noc3n2)c1 | 2 | 1
COc1ccc(-c2cnc(NC(C)=O)cn2)cc1 | 6 | 2
O=c1nc(SCc2ccc(Cl)cc2)c2c(n1CC1CCCO1)CCCC2 (stereo not given) | -4 | -7
CCOc1cc(/C=C2/SC(N)=NC2=O)cc(Br)c1O | 13 | 10
Cc1[nH]c2ccccc2c1S(=O)(=O)CCNC(=O)NC(C)(C)C | 5 | 3
Cc1nc(-c2ccc(N)cc2)n[nH]1 | -8 | -15
O=C(NCCN1CCCC(c2ccccc2)C1)C1CCOCC1 (stereo not given) | 2 | 0

A different layout for part of the listing above.
Molecule	NPYLR7 ag	NPYLR7 ag max-min
CCc1ccc(-c2cc3c(SCC(=O)Nc4ccccc4)nccn3n2)cc1	-3	-9
CCOCCC(=O)N1CCN(Cc2cccc(-c3noc(-c4cccc(Cl)c4)n3)c2)CC1	2	-1
CC(C)(C)c1nnc(CN)s1	15	0

Screening data deposited in PubChem by Fisher Drug Discovery Resource Center.

Some of the compounds tested, so the mix of outcomes need not match the whole.
